Compound activity from PubChem.
MLL AF4-AF9 inh – inhibitors of AF4 peptide binding to AF9, primary screen, biochemical, AlphaScreen, biotin-AF4 peptide, FLAG-AF9, single point; AID 651704, 2012; 350,000 tested, 0.47% active; inhibition, % at 10 µM;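 active = every replicate reaching a set inhibition limit, whatever the replicate mean, cut at about 25% in these data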;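 also: 0% = plate neutral control median and 100% = total signal loss; the record names both 10 and 1 µM as test concentration; the first replicate is given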
Target sequence (P42568 whole entry, looked up): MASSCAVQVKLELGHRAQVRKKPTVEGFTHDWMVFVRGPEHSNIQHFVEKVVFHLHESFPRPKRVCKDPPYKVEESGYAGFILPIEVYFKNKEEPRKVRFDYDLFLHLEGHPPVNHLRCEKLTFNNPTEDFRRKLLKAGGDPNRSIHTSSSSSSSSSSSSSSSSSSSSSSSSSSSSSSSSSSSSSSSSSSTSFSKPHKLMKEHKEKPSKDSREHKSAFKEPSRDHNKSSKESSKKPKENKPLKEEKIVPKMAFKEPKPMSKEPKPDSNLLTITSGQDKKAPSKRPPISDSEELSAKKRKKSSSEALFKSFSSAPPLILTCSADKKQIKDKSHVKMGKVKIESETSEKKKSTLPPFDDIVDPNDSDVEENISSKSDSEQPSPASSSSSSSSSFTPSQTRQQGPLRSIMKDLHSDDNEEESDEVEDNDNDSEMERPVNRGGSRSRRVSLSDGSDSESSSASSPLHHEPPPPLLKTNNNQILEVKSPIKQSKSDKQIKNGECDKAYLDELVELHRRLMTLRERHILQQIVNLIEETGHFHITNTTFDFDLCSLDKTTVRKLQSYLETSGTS
rRNA inh HTS – reduced GFP signal of wild-type E. coli, primary screen, bacterial rRNA inhibitor project, GFP/RFP fluorescence, OD600, single point | AID 720706, 2013 | 350,000 tested, 1.6% active | E. coli WT GFP vs humanized-ribosome RFP mutants, 24 h; hits give low values; DMSO median 0, no signal -100 | GFP signal change (wild-type ribosome), % (test concentration not listed);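 active = significant combined selectivity score with lowered wild-type GFP, culture density cut under 30%, mutant RFP and density less affected; inactive = any of these conditions unmet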; also: one replicate is shown; some compounds called inactive have numbers as strong as hits
FGF22 binding – binders of human FGF22 protein, primary screen, FGF22 synaptogenesis inhibitor project, biophysical, thermal shift, single point; Fibroblast growth factor 22 (Homo sapiens), Q9HCT0; recombinant FGF22 thermal shift, SYPRO orange fluorescence; percent of sucrose octasulfate shift, DMSO zero; calls only at 9.99 µM; 340,000 tested, 1.5% active; AID 651658, 2012;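 active = melting point raised past a set limit in the mean and every replicate; three in four hits are not shown here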
Target sequence (Q9HCT0 whole entry, looked up): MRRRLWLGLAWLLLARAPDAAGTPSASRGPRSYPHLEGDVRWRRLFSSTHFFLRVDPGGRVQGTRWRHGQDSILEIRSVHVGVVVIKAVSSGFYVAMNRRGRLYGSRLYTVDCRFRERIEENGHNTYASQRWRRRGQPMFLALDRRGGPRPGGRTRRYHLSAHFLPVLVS
rRNA inh HTS OD600 – further read-out of rRNA inh HTS, marked with its call; OD600 change, %; measured here: OD600 growth;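 optical density of the mix in the first replicate; 0 = DMSO median and -100 = no signal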
rRNA inh HTS RFP – second read-out of rRNA inh HTS, no call of its own (marks repeat the call); RFP signal change, %; measured here: RFP humanized mutant strains;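 first replicate; 0 = DMSO median and -100 = no signal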
Numbers without * were called inactive; i = inactive; + = active, no number; & = joins results of further samples. This is a subset; count on the stated rates, not on these rows.

SMILES	MLL AF4-AF9 inh	rRNA inh HTS	rRNA inh HTS OD600	rRNA inh HTS RFP	FGF22 binding
CCOC(=O)N1CCN(C(c2ccnc3ccccc23)c2nnnn2-c2c(C)cccc2C)CC1 (configuration not stated)	1.9	0.1	-9.4	2.7	i
C[C@@H]1CN([C@H](C)CO)C(=O)c2cccc(NS(C)(=O)=O)c2O[C@@H]1CN(C)Cc1ccccc1	-2.0	3.9	7.3	-1.5	i
COc1ccc(S(=O)(=O)Nc2ccc3c(c2)C(=O)N([C@@H](C)CO)C[C@H](C)[C@H](CN(C)S(=O)(=O)c2ccc(OC)cc2)O3)cc1	1.7	-6.3	-1.2	8.7	i
C[C@@H]1CN([C@@H](C)CO)C(=O)c2cccc(NC(=O)Nc3ccc(C(F)(F)F)cc3)c2O[C@@H]1CN(C)C(=O)NC1CCCCC1	-3.4	6.6	14.2	1.8	i
O=C(Nc1ccc(C(F)(F)F)cc1)N[C@@H]1C=C[C@H](CC(=O)N2CCCCC2)O[C@H]1CO	-0.2	-1.3	-12.9	-0.4	i
O=C(C[C@@H]1CC[C@@H]2[C@H](COC[C@H](O)CN2C(=O)c2ccccc2)O1)NCc1cccc(F)c1	-9.6	-3.7	-0.3	-2.3	i
COc1ccccc1Cc1c(-c2ccc(Cl)cc2)nc2c3ccccc3ccn12	-0.8	29.0	16.1	20.2	i
O=C(N[C@@H]1CC[C@@H](CCn2cc(-c3ccccc3F)nn2)O[C@@H]1CO)c1ccc2c(c1)OCO2	-17.2	-0.8	-1.4	3.2	i
C[C@H]1CN([C@@H](C)CO)S(=O)(=O)c2ccc(C#CC3CCCC3)cc2O[C@H]1CN(C)Cc1ccccc1C(=O)O	7.7	-2.3	-3.9	4.7	i
O=C(Cc1ccccn1)NCC[C@H]1CC[C@H](NC(=O)Nc2ccc(F)cc2)[C@@H](CO)O1	0.1	2.0	0.5	-1.8	i
COc1ccc(NC(=O)Nc2ccc3c(c2)C(=O)N([C@H](C)CO)C[C@@H](C)[C@H](CN(C)S(=O)(=O)c2ccc(OC)cc2)O3)cc1	2.5	-6.7	-6.2	0.3	i
COc1ccccc1-c1ccc([C@@H]2[C@H](C#N)N[C@@H]2CO)cc1	2.2	-0.9	13.2	-3.2	i
C[C@@H]1CN([C@H](C)CO)C(=O)Cc2cc(NC(=O)Nc3ccc4c(c3)OCO4)ccc2O[C@H]1CN(C)Cc1ccccc1	2.3	1.3	-14.2	4.4	i
Cc1ccc(C)c(OCc2cc(C(=O)N3CCN(C4CCCCC4)CC3)no2)c1	1.0	-5.9	-31.2	5.7	i
C[C@H]1CN([C@@H](C)CO)C(=O)c2cccc(NS(=O)(=O)c3ccc(Cl)cc3)c2O[C@H]1CN(C)S(=O)(=O)c1ccc(Cl)cc1	0.9	1.0	3.8	0.2	i
CCC(=O)N1[C@@H](CO)[C@@H]2c3ccccc3N(C(=O)c3ccccc3F)C[C@@H]21	-1.2	7.1	11.6	-0.5	i
COc1ccc2c3c(n(C)c2c1)[C@@H](CO)N(C(=O)C1CCOCC1)CC31CCN(C)CC1	-1.1	4.4	7.4	-3.6	i
COc1ccc(CN2C(=O)c3ccccc3C2=O)cc1C(=O)N(C)CC(=O)Nc1ccc(C)cc1	-4.9	5.4	10.1	1.4	i
C[C@@H]1CN([C@@H](C)CO)C(=O)c2cccc(NS(=O)(=O)c3ccc(F)cc3)c2O[C@@H]1CN(C)Cc1ccc(-c2ccccc2)cc1	4.4	0.9	-4.2	0.0	i
O=C(Nc1c(-c2ccccc2)[nH][nH]c1=O)c1ccc2c(c1)OCO2	-1.4	5.8	8.3	2.3	i
CCCNC(=O)C1(C)CCCN(C(=O)c2ccccc2F)C1 (configuration not stated)	-3.2	3.5	4.8	-3.3	i
C[C@H](CO)N1C[C@H](C)[C@H](CN(C)C(=O)Nc2ccccc2C(F)(F)F)OCc2ccccc2-c2c(n(C)c3ccccc23)C1=O	1.4	0.1	2.4	0.8	i
C/C=C/c1ccc2c(c1)O[C@@H](CN(C)C(=O)Nc1ccccc1)[C@@H](C)CN([C@H](C)CO)S2(=O)=O	4.8	-6.0	-13.2	0.6	i
O=C(C[C@H]1C=C[C@@H](NC(=O)CN2CCOCC2)[C@H](CO)O1)NCc1cccc(F)c1	0.6	2.6	-1.6	0.2	i
COc1ccc(S(=O)(=O)N(C)C[C@H]2OCCCC[C@H](C)Oc3ccc(NC(=O)Nc4ccc5c(c4)OCO5)cc3C(=O)N([C@H](C)CO)C[C@@H]2C)cc1	2.0	-5.0	0.6	1.7	i
O=C(Nc1ccccc1)[C@H]1[C@H](CO)[C@H]2Cn3c(ccc(C4=CCCCC4)c3=O)[C@H]2N1Cc1cocn1	-8.5	-8.3	-14.7	1.5	i
C[C@H](CO)N1C[C@H](C)[C@@H](CN(C)CC2CC2)Oc2ccc(NS(=O)(=O)c3ccc(F)cc3)cc2CC1=O	1.1	-2.5	-3.5	-3.4	i
CN(C)CC#Cc1ccc([C@H]2[C@H]3CN(CC4CCOCC4)CCCCN3[C@H]2CO)cc1	-4.2	6.3	19.2	-5.2	i
COc1cccc(C(=O)N2C[C@@H]3[C@H](c4ccccc42)[C@@H](CO)N3Cc2ccccc2Cl)c1	5.2	-18.0	-15.1	-2.4	i
C[C@H]1CN([C@@H](C)CO)S(=O)(=O)c2ccc(/C=C/c3ccccc3)cc2O[C@@H]1CN(C)C(=O)c1ccc2c(c1)OCO2	5.5	-5.4	-0.7	1.9	+
CC1CCCN(S(=O)(=O)c2cccc(C(=O)NCCCN3CCCC3=O)c2)C1 (configuration not stated)	-2.1	6.6	13.4	0.5	i
COCC(=O)N1C[C@H]2[C@@H](c3ccccc31)[C@H](CO)N2C(=O)C1CCOCC1	0.6	0.8	1.6	3.5	i
COc1ccccc1-c1cn(CC[C@H]2CC[C@H](NC(=O)c3ccccc3F)[C@@H](CO)O2)nn1	-0.6	-4.9	-9.6	-0.5	i
CCOC(=O)[C@]12CCC=C1N(CCC1=CCCCC1)C(=O)[C@H](CC(=O)NCCc1ccccc1OC)C2	4.3	10.6	10.2	4.8	i
CO[C@H]1CN(C)C(=O)c2cc(NC(=O)C3CCCC3)ccc2OC[C@@H](C)NC[C@H]1C	-0.9&0.2	7.2&3.7&19.8	9.7&8.9&8.6	-1.7&-2.5&0.2	i
Cc1cc(C)cc(Cn2cc(CN3CC(N4CCN(CCN(C)C)CC4)CS3(=O)=O)nn2)c1 (configuration not stated)	4.9	4.9	1.7	0.9	i
CC1=C(C(=O)N(C)C)CC(CC(=O)NCCc2ccccn2)C(=O)N1Cc1ccc(F)cc1 (configuration not stated)	-0.7	-0.2	10.2	-2.3	i
CN(C)CC(=O)N[C@@H]1CC[C@H](CC(=O)NCc2ccc(Cl)cc2)O[C@H]1CO	-3.3	0.7	-7.0	0.0	i
O=C1NC[C@H](Cc2ccccc2)N(CC2CCN(CCc3ccc(-c4ccccc4)cc3)CC2)C1=O	5.3	-10.5	-6.2	3.2	i
O=C(NCC1CCCCC1)[C@H]1[C@H](CO)[C@H]2Cn3c(ccc(-c4ccc(F)cc4)c3=O)[C@@H]1N2	1.7	-3.2	3.8	1.9	i
CC=Cc1ccc2n(c1=O)C[C@@H]1[C@@H](CO)[C@H](C(=O)N3CCN(C)CC3)N(Cc3ccccc3F)[C@H]21 (mixture of isomers)	1.3	-1.8	4.9	2.0	i
O=C(N[C@@H]1CC[C@@H](CC(=O)N2CCCCC2)O[C@@H]1CO)c1cccc(F)c1	-1.4	1.8	4.8	-2.5	i
COc1ccc(F)cc1-c1cc(C(=O)NCc2ccc(F)cc2)[nH]n1	0.8	-15.6	-50.0	-0.3	i
O=C(C[C@H]1CC[C@@H](NC(=O)CN2CCOCC2)[C@@H](CO)O1)NC1CCC1	-3.6	-2.1	-1.4	-0.9	i
CCNC(=O)C1(C)CCCN1Cc1c(F)cccc1F (configuration not stated)	-1.2	11.8	12.5	0.3	i
C[C@H](CO)N1C[C@H](C)[C@@H](CN(C)Cc2ccc(C(F)(F)F)cc2)OCCCC[C@H](C)Oc2ccc(NC(=O)CCCN(C)C)cc2C1=O	5.4	1.4	-3.5	2.1	i
CC(C)NC(=O)N(C)C[C@H]1OCc2cn(nn2)CCCC(=O)N([C@@H](C)CO)C[C@@H]1C	1.5	0.3	4.0	-2.6	i
CC(C)NC(=O)N1C[C@H]2[C@@H](c3ccccc31)[C@H](CO)N2C(=O)c1ccc(F)cc1	0.9	1.8	6.5	-2.7	i
O=C(C[C@H]1CC[C@@H]2[C@H](COC[C@H](O)CN2Cc2ccc3c(c2)OCO3)O1)Nc1ccc(-c2ccccc2)cc1	-1.4	-2.8	-49.4	16.7	i
C[C@@H]1CN([C@@H](C)CO)C(=O)c2cccc(NC(=O)C3CC3)c2O[C@H]1CN(C)Cc1ccc(C(=O)O)cc1	-9.9	3.8	20.5	-2.4	i
COc1ccccc1NC(=O)N[C@@H]1CC[C@H](CCn2cc(-c3ccccc3OC)nn2)O[C@@H]1CO	4.4	-4.9	-11.8	4.7	+
Cc1ccc(S(=O)(=O)N(C)C[C@H]2Oc3ccc(NC(=O)Nc4ccccc4)cc3CC(=O)N([C@@H](C)CO)C[C@@H]2C)cc1	0.8	8.5	-6.4	3.8	i
COc1ccc(NC(=O)N(C)C[C@H]2Oc3c(NS(=O)(=O)c4ccc(C)cc4)cccc3C(=O)N([C@@H](C)CO)C[C@@H]2C)cc1	-1.3	-3.1	-1.5	0.0	i
CCOC(=O)Nc1cc2c(cc1[N+](=O)[O-])-c1ccccc1C2=O	0.7	29.3	9.5	-3.4	i
Cn1cnc(S(=O)(=O)N[C@H]2C=C[C@H](CC(=O)Nc3ccccc3)O[C@H]2CO)c1	-1.7	0.1	-0.5	-0.7	i
C/C=C/c1cnc2c(c1)C(=O)N([C@@H](C)CO)C[C@@H](C)[C@@H](CN(C)S(=O)(=O)c1ccccc1)O2	-5.4	0.0	8.6	0.0	i
Cc1noc(C)c1S(=O)(=O)N(C)C[C@H]1Oc2ccc(NC(=O)Nc3ccc4c(c3)OCO4)cc2CC(=O)N([C@@H](C)CO)C[C@@H]1C	8.7	-0.1	1.4	-2.3	i
Cc1ccc(OCC(=O)NNC(=O)c2ccc(F)c(S(=O)(=O)N3CCOCC3)c2)cc1C	-1.4	-8.8	-3.3	4.0	i
O=C1[C@H](Cc2ccccc2)NCCCC[C@H](c2ccc(Cl)cc2)N1Cc1ccccc1	3.2	-2.6	-21.2	-0.6	i
CNC[C@@H]1OCCCC[C@@H](C)Oc2ccc(N(C)C)cc2C(=O)N([C@H](C)CO)C[C@H]1C	4.8	4.8	0.5	-3.0	i
Further results:
SMILES	MLL AF4-AF9 inh	rRNA inh HTS	rRNA inh HTS OD600	rRNA inh HTS RFP	FGF22 binding
C[C@H](CO)N1C[C@H](C)[C@@H](CN(C)S(=O)(=O)c2cn(C)cn2)Oc2cc(C#Cc3cccc(F)c3)ccc2S1(=O)=O	2.0	-3.9	-17.7	3.8	i
Cc1ccc(S(=O)(=O)N(C)C[C@@H]2Oc3cc(Br)ccc3S(=O)(=O)N([C@@H](C)CO)C[C@@H]2C)cc1	4.3	-9.6	-26.2	0.5	i
C[C@@H]1CN([C@H](C)CO)C(=O)c2cccc(NC(=O)c3ccc(-c4nccs4)cc3)c2O[C@H]1CN(C)CC1CCCCC1	6.5	1.6	-0.9	2.7	i
CN(C)CC#Cc1ccc([C@@H]2[C@H](CO)N3CCCCN(C(=O)CN(C)C)C[C@@H]23)cc1	8.4	5.8	14.8	-1.8	i
O=C(CSc1nc(C2CC2)nc2ccccc12)N1CCc2ccccc21	-4.2	13.5	19.5	4.0	i
C[C@@H]1CN([C@@H](C)CO)S(=O)(=O)c2ccc(-c3cccc(F)c3)cc2O[C@H]1CN(C)CC1CC1	4.0	-0.8	-25.7	25.2	i
COc1ccc(C(=O)Nc2ccc3c(c2)OC[C@H](C)N(C)C[C@@H](C)[C@@H](OC)CN(C)C3=O)cc1	0.8	-3.5	-0.7	0.2	i
O=C(Nc1ccc(F)cc1)N1CCCCN2[C@H](CO)[C@@H](c3ccc(-c4cccc(F)c4)cc3)[C@@H]2C1	-3.1	-48.5	-61.1	-5.5	i

Part of the list above, comma-delimited.
Compound,MLL AF4-AF9 inh,rRNA inh HTS,rRNA inh HTS OD600,rRNA inh HTS RFP,FGF22 binding
O=C(N[C@@H]1CC[C@@H](CC(=O)N2CCCCC2)O[C@@H]1CO)c1cccc(F)c1,-1.4,1.8,4.8,-2.5,i
COc1ccc(F)cc1-c1cc(C(=O)NCc2ccc(F)cc2)[nH]n1,0.8,-15.6,-50.0,-0.3,i

Among those listed so far, these contain an NH in an aromatic ring:
SMILES	MLL AF4-AF9 inh	rRNA inh HTS	rRNA inh HTS OD600	rRNA inh HTS RFP	FGF22 binding
O=C(Nc1c(-c2ccccc2)[nH][nH]c1=O)c1ccc2c(c1)OCO2	-1.4	5.8	8.3	2.3	i
COc1ccc(F)cc1-c1cc(C(=O)NCc2ccc(F)cc2)[nH]n1	0.8	-15.6	-50.0	-0.3	i
